Sa RN4220 lethal – S. aureus RN4220 growth inhibition. OD600, 16 h. inhibition, % (concentration not given with the values). 0.33% of 330,000 active;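 active = z-score of -3 or lower and OD600 up to 0.18 on both plates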;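 note: plate controls were untreated cells for no effect and reference antibiotic for full effect; stock transfer was 100 nL into about 80 µL; one replicate is shown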
BJeLR lethal – BJeLR cell viability loss | 0.17% of 300,000 active | inhibition, % (test concentration not listed) | BJeLR (HRASV12) viability, CellTiter-Glo ATP luminescence, 48 h; reference of the scale not given here;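 active = replicate mean above 50%; inconclusive = above 50% but judged a plate artefact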;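 note: 50 nL library stock added to about 25 µL; numbers are from one replicate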
Sa ugtP lethal – compounds lethal to S. aureus RN4220 ugtP deletion mutant; AID 1259309; growth inhibition, % (test concentration not listed); OD600 growth, 16 h; some inactives read as strong as hits; 0.54% of 330,000 active;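 active = z-score under -3 and OD600 up to 0.15 on both plates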;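 note: plate controls were untreated wells for no effect and antibiotic for full effect; wells of about 80 µL received 100 nL stock; the first replicate is given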
PrP UTR inh – suppresses PrP 5' UTR mRNA reporter expression. cell-based PrP 5' UTR mRNA reporter, plate reader. inhibition, % (test concentration not listed). 0.35% of 340,000 active;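 active = every replicate at 50% or more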;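 note: 0 = median of the neutral control wells; tested in H4 reporter cells; numbers are from one replicate; inactives centre near -14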
Autofluor counter – counter-screen for toxin protease inhibitors: compound fluorescence. compound autofluorescence counterscreen, microsphere flow cytometry; hits give high values. fluorescence intensity (concentration not given with the values). 3.1% of 360,000 active. AID 624483;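 active = at least 3 SD above the mean of all compounds, about 16000 in these data; inconclusive = too few beads counted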;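 note: 100 nL of 1 mM stock went into each well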
Mtb hypoxia rep – inhibitors of hypoxia-regulated fluorescent reporter in Mycobacterium tuberculosis; M. tuberculosis hypoxia-regulated fluorescent reporter, fluorescence; fluorescence inhibition, % (test concentration not listed); 0.1% of 300,000 active; AID 1159583;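 active = 35 to 45% if threefold the growth effect, above 45% if 1.5-fold the growth effect; inactive = the rest, general growth blockers included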;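 note: wells of about 50 µL received 100 nL stock; 0% = vehicle wells and 100% = reference inhibitor wells; whole bacteria with a GFP reporter of the hypoxia response; strong numbers were not always called active; many hits fall short of the cut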
Mtb hypoxia rep growth – further read-out of Mtb hypoxia rep, marked with its call; growth inhibition, %; measured here: M. tuberculosis growth (absorbance);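 0% = vehicle and 100% = reference antibiotic; read after six days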
* marks the source's active call; other numbers are inactive results; ? = inconclusive; nt = not tested or not shown.

SMILES	Sa RN4220 lethal	BJeLR lethal	Sa ugtP lethal	PrP UTR inh	Autofluor counter	Mtb hypoxia rep	Mtb hypoxia rep growth
CCOCCCNC(=O)c1ccc(NC(=O)C2CCCO2)cc1 (stereo not drawn)	0.5	-5.6	3.5	-10.4	3656	-1.1	9.4
CCn1c(-c2ccccn2)nc2cc(S(=O)(=O)N(C)C)ccc21	-0.3	-6.5	0.9	-6.5	4001	13.8	8.1
Cc1ccccc1-c1nnc(-c2ccccc2C)o1	5.5	2.6	-6.0	-117.8	4432	nt	nt
O=C(CNS(=O)(=O)c1ccc(Br)cc1)NCc1ccncc1	6.0	-1.9	-8.7	-11.8	6381	-11.4	-0.8
Cn1cccc1Cc1nnc(SCC(=O)N2CCOCC2)n1CCc1ccccc1	2.3	-7.6	2.6	-30.0	6002	nt	nt
Cc1cccc(C(=O)NCC(=O)N(C)Cc2nc3ccccc3c(=O)[nH]2)c1	0.4	nt	5.6	-23.8	3975	-3.9	-2.6
Cc1ccc(CNC(=O)C(=O)NCCC2=CCCCC2)cc1	-1.6	3.5	-3.3	-3.4	2651	-7.0	-1.4
Cn1c(N)c(C(=O)COC(=O)c2cc(S(=O)(=O)N3CCCCC3)ccc2Cl)c(=O)n(C)c1=O	5.9	-13.6	1.5	-15.4	2505	4.8	-0.3
COCCCNC(=O)C1CCC(CNS(=O)(=O)c2ccc(C)cc2)CC1 (stereo not drawn)	13.6	-3.3	2.7	nt	nt	14.2	14.5
O=C(NCCN1CCN(c2ccc([N+](=O)[O-])cc2)CC1)NCc1ccccc1	0.0	12.7	-3.2	-17.1	3534	-2.6	1.5
CCc1ccc(NC(=O)CNC(=O)[C@@H]2Cc3ccccc3CN2C(=O)OC(C)(C)C)cc1	10.0	4.3	-2.9	-19.9	5019	-4.4	5.9
COc1cccc(CN(C)C(=O)CN2C(=O)NC(c3ccccc3)(c3ccccc3)C2=O)c1	5.9	nt	3.4	-15.6	7951	6.7	6.2

Next part; it opens with the 2 that closed the last part.
SMILES	Sa RN4220 lethal	BJeLR lethal	Sa ugtP lethal	PrP UTR inh	Autofluor counter	Mtb hypoxia rep	Mtb hypoxia rep growth
CCc1ccc(NC(=O)CNC(=O)[C@@H]2Cc3ccccc3CN2C(=O)OC(C)(C)C)cc1	10.0	4.3	-2.9	-19.9	5019	-4.4	5.9
COc1cccc(CN(C)C(=O)CN2C(=O)NC(c3ccccc3)(c3ccccc3)C2=O)c1	5.9	nt	3.4	-15.6	7951	6.7	6.2
CC(C)(C)c1ccc(C(=O)Nc2ccc(C=C(C#N)C#N)cc2)cc1	4.4	3.7	-2.9	-75.3	2498	-5.0	1.7
O=C(N/N=C/c1c(Cl)cccc1Cl)c1ccccc1F	nt	-9.2	nt	-10.2	2543	nt	nt
CC(NC(=O)c1ccc(N)cc1)c1ccccc1 (stereo not drawn)	3.5	-3.0	0.1	-8.6	4337	4.0	9.4
COc1ccccc1NCCC(=O)OCC(=O)Nc1ccccc1F	0.7	nt	-1.2	-16.4	8775	-10.9	6.1
COC(=O)c1ccc(C(=O)OC)c(NC(=O)COC(=O)C23CC4CC(CC(O)(C4)C2)C3)c1	-7.9	0.2	3.6	-12.1	nt	nt	nt
O=C(CN1C(=O)/C(=C/c2cccc(Br)c2)SC1=S)Nc1cccnc1	nt	-6.9	nt	-19.7	2328	nt	nt
CCN(CC)S(=O)(=O)c1ccc(-c2nnc(SCC(=O)Nc3ccc(OC)c(OC)c3)o2)cc1	2.4	15.3	-0.5	-35.1	9383	16.1	15.8
Cc1c(C(=O)N(Cc2ccc(N(C)C)cc2)C2CCS(=O)(=O)C2)oc2ccccc12 (stereo not drawn)	4.2	4.0	3.0	-7.2	4424	2.7	10.7
O=C(COC(=O)CNC(=O)C1CCCCC1)Nc1ccc2c(c1)OCCO2	2.5	-4.1	1.4	2.2	4800	8.5	17.7
O=C(NNC(=O)C1CCCO1)c1ccc(Br)cc1 (stereo not drawn)	4.1	-7.4	2.7	-24.8	2751	-3.6	-4.9
S=C1NCCNC(=S)NCCOCCOCCOCCN1	3.7	-2.1	3.0	2.8	4206	-6.9	0.5
Oc1ccc(-c2nnc(Nc3cccc(O)c3)c3ccccc23)cc1	2.2	2.7	1.6	-15.6	4680	5.8	-3.1
Cc1ccc2nc(SCC(=O)N3CC(C)OC(C)C3)nc(=O)n2c1 (stereo not drawn)	0.1	5.1	3.7	-13.5	4972	7.5	9.3
COc1ccc(-c2noc3c2-c2nc(-c4ccccc4F)sc2CC3)cc1	-6.1	-6.5	-18.1	-20.2	3806	10.3	5.4
COc1ccc(OCC(=O)Nc2ccc(N3CCOCC3)cc2)c([N+](=O)[O-])c1	7.5	-0.9	6.1	-24.5	4443	19.0	2.5
O=C(Nn1cnnc1)c1cc2c(s1)CCCCC2	6.0	3.1	-9.1	nt	8153	13.5	7.9
Cc1nnc(SCc2cc([N+](=O)[O-])cc3c2OCOC3)n(N)c1=O	-3.5	5.5	-6.4	-6.3	3250	-7.9	-3.3
CSCCC(NC(=O)c1ccccc1)C(=O)OCC(=O)NCc1ccco1 (stereo not drawn)	2.4	nt	-1.4	-27.2	3768	-2.5	2.0
c1ccc(-c2nnc(OCCN3CCOCC3)c3ccccc23)cc1	1.6	-12.2	-2.9	-18.0	4304	3.2	9.9
CCOc1ccc(/C=N\NC(=O)CC(=O)NCCc2ccccc2)cc1	nt	22.5	nt	-20.0	3755	nt	nt
Cc1ccc(C(O)P(=O)(OC2CCCCC2)OC2CCCCC2)cc1 (stereo not drawn)	3.1	-4.2	-12.8	-23.3	9901	9.1	7.0
COc1cccc(C2(O)CCN(C(=O)c3cccs3)CC2)c1	5.4	-5.2	8.3	-3.6	3146	nt	nt
CCOc1ccccc1OCCNC1CCCC1	3.4	-7.7	4.7	-32.1	2015	9.4	5.9
Cc1ccc(SCCC(=O)NN=Cc2ccncc2)cc1	0.2	nt	6.5	nt	nt	14.4	6.0
CS(=O)(=O)N(Cc1ccc(C(=O)NCCSCc2ccco2)cc1)c1ccccc1	4.6	-0.6	0.1	-9.8	21841*	6.1	12.0
C=CCNC(=S)/N=c1/ccccn1C	nt	6.9	nt	-20.6	3465	nt	nt
CC(C)c1nc2cc(C(=O)NC(C)c3cnn(C)c3)ccc2o1 (stereo not drawn)	-2.5	-0.5	-2.2	6.5	4335	0.8	11.8
C=CCNc1nnc(Cc2ccc(F)cc2)c(=O)[nH]1	-0.2	8.8	2.5	-19.8	5681	3.0	7.1
COc1ccc(CN2CCC(=O)N(CCO)CC2)cc1OC	4.9	0.7	3.1	-25.5	3964	4.8	13.7
Cc1c(NC(=O)C(C)Sc2nc(N)cc(=O)[nH]2)c(=O)n(-c2ccccc2)n1C (stereo not drawn)	3.6	nt	2.3	-2.9	nt	8.2	2.9
Cn1c(Cn2c(=O)sc3ccccc32)nnc1SCC(=O)NCc1ccc2c(c1)OCO2	4.9	-3.5	4.5	-16.6	5571	nt	nt
c1ccc(C2COC(c3cccs3)=N2)cc1 (stereo not drawn)	-2.5	0.0	18.7	nt	8258	10.0	7.7
CO/N=C/CC(=O)c1ccc([N+](=O)[O-])c(CS(=O)(=O)c2ccc(Cl)cc2)c1	nt	-18.1	nt	-14.7	3910	nt	nt
O=C(c1cnc(N2CCN(c3ncccn3)CC2)c2ccccc12)N1CCN(c2ccccn2)CC1	1.6	0.1	6.1	-17.7	4861	13.3	12.7
CS(=O)(=O)Cc1ccc(C(=O)NC2CCSc3ccccc32)cc1 (stereo not drawn)	-0.2	-2.7	17.7	-16.8	3411	6.9	11.9
COc1cccc(CN(C)C(=O)C(CCSC)NS(=O)(=O)c2ccc3c(c2)OCCO3)c1OC (stereo not drawn)	2.1	10.6	-1.7	5.0	6447	-13.0	-0.5

Looked up above:
In Autofluor counter, CO/N=C/CC(=O)c1ccc([N+](=O)[O-])c(CS(=O)(=O)c2ccc(Cl)cc2)c1 is entered as 3910
In Autofluor counter, c1ccc(C2COC(c3cccs3)=N2)cc1 (stereo not drawn) is entered as 8258

More compounds.
SMILES	Sa RN4220 lethal	BJeLR lethal	Sa ugtP lethal	PrP UTR inh	Autofluor counter	Mtb hypoxia rep	Mtb hypoxia rep growth
CCN(Cc1cc(=O)[nH]c2ccccc12)C(=O)c1ccc(C)cc1	6.2	13.6	5.4	-1.9	3237	0.3	-4.5
CCOc1ccc(-n2c(=O)c3sccc3n(CC(=O)NCC3CCCO3)c2=O)cc1 (stereo not drawn)	3.7	-6.3	5.7	-22.4	6101	0.3	-4.8
Cn1c(=O)c2c(ncn2CC(=O)N/N=C/C(Br)=C/c2ccccc2)n(C)c1=O	nt	1.3	nt	-20.8	2486	nt	nt
COc1ccc2cc3cc(C(=O)NCCCN4CCC(C)CC4)oc3nc2c1	-1.9	-3.0	6.6	-42.1	5114	7.7	-13.0
O=C(O)/C=C/C(=O)NNC(=O)c1cc(-c2ccccc2)n[nH]1	1.0	0.5	0.2	-7.4	4186	-9.9	-35.0
CC1(C)C(=O)OC(c2ccco2)C(C)(C)C1=O (stereo not drawn)	11.7	-0.8	11.6	-7.2	3419	nt	nt
CCOc1ccc(S(=O)(=O)N2CCN(Cc3ccc4c(c3)OCO4)CC2)cc1OCC	nt	1.5	nt	-15.9	3991	nt	nt
COc1cc(C=NNc2ccc(Cl)cc2)ccc1OC(=O)c1cccs1	1.9	nt	-9.9	nt	nt	4.6	1.9
CC1CCN(S(=O)(=O)c2ccccc2[N+](=O)[O-])CC1	1.0	-2.9	0.8	-12.5	6976	18.6	6.5
CC1=C(/C=C/C(=O)O)C(C)(C)CCC1	2.1	2.3	-5.7	-16.7	8698	4.2	1.9
COc1ccc(OC)c(-c2cc(C(=O)Nc3c(C)n(C)n(-c4ccccc4)c3=O)no2)c1	2.0	-4.0	11.1	-12.4	16603*	3.2	-2.2
CCC(C(=O)Nc1cc(C)on1)c1ccccc1 (stereo not drawn)	-2.7	5.6	0.2	-15.0	4785	nt	nt
COc1ccccc1C(=O)NNC(=O)c1ccc(F)cc1	10.3	6.1	4.6	-60.9	2030	7.4	0.9
O=C(COC(=O)C1CC1)NCCc1ccccc1	1.0	nt	5.1	-16.4	3400	16.5	15.8
CC[C@@H]1CC=C[C@H]2[C@H]1C(=O)N(Cc1ccccc1)[C@H]2c1ccoc1	nt	3.5	nt	-11.4	4335	nt	nt
CCOC(=O)c1[nH]nc(-c2c(O)cc(C)cc2O)c1-c1csc(C)n1	3.5	-2.6	-0.7	-5.1	2396	-1.2	-1.8
Cc1nn2c(nc1=O)SCC(c1ccccc1)=N2	7.9	4.5	3.4	-6.8	3817	nt	nt
COc1ccc(NS(=O)(=O)c2cccc(C(=O)N/N=C/c3ccccn3)c2)cc1	nt	-9.2	nt	-39.5	4021	nt	nt
COc1cccc2sc3ccc(C#CC4(O)CCCCC4)cc3c(=O)c12	3.3	-1.4	-17.4	-69.6	4115	9.7	9.0
CC(=O)OC(C[N+]1(C)CCCCCC1)c1ccccc1 (stereo not drawn)	1.9	1.6	4.2	-18.6	3747	6.7	8.6
O=C(Nc1cccc(S(=O)(=O)N2CCOCC2)c1)c1ccc(Cl)nc1	1.4	nt	-7.7	-6.2	?	-17.6	-0.7
NC(=O)CC(NC(=O)c1ccccc1)c1ccc(NCc2ccccn2)c([N+](=O)[O-])c1 (stereo not drawn)	7.5	2.0	6.8	-16.2	3879	7.8	-2.0
Cc1ccc(/C=N\NC(=O)c2csnn2)cc1	nt	-0.5	nt	-73.5	4642	nt	nt
CCN1C(=O)C2C(C)C3=C4C(CC5C(=O)N(CC)C(=O)C5C4[C@@]4(C)C(=NCC5CC5)OC(=O)N4C3=O)C2C1=O (stereo partly drawn)	0.8	nt	-2.9	nt	nt	-0.4	-7.6
COc1cccc(C2C(C(=O)OC(C)C)=C(C)N=c3sc(=Cc4ccc(C(=O)O)cc4)c(=O)n32)c1 (stereo not drawn)	9.3	nt	-7.4	nt	nt	-0.9	-5.3
O=Cc1c(NCCc2ccc(F)cc2)c2ccccc2[nH]c1=O	-1.2	0.1	9.4	-6.6	3606	4.8	2.3
COc1ccc(N(CC(=O)Nc2cc(Cl)ccc2C)S(=O)(=O)c2c(C)n[nH]c2C)cc1	-3.2	-2.8	-8.9	-26.0	5599	-3.7	7.4
CCN(CC)C(=O)Cn1cc(SCC(=O)NCc2ccco2)c2ccccc21	12.7	-9.8	6.2	-19.0	3135	7.3	11.3

High-throughput results as filed in PubChem.
